# Bioassay records from PubChem BioAssay.
# HIV Env fusion = inhibitors of HIV-1 Env-driven cell-cell fusion, primary screen, HeLa-JRFL effector, CEM21 target cells, luciferase; hit rate 1.1% among 360,000; AID 651610, 2012; inhibition, % at 12.3 µM;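 active = mean replicate inhibition score of at least 50 and every replicate individually at or above 50; inconclusive = only one of the two criteria met; inactive = mean below 50 and not all replicates reaching 50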;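 also: 0% = plate neutral controls and 100% = maraviroc near 300 nM; one replicate is shown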
# eIF4H FP inh = human eIF4H binding inhibitors, primary screen, translation initiation inhibitor project, biochemical, uHTS, fluorescence polarization; Eukaryotic translation initiation factor 4H (Homo sapiens), Q15056; eIF4H fluorescence polarization binding assay; inhibition, % at 35 µM; hit rate 0.94% among 290,000; AID 2012, 2009;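 active = 50% or more with normal probe brightness, or confirmed in later tests; inconclusive = above 50% with abnormal brightness, or retests that disagree; inactive = below 50% or failed in later tests; about a fifth of its hits are not listed in these tables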;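 also: calls also rest on retests at 20 µM and on dose response follow-up; 0% = protein and probe with vehicle and 100% = probe without protein; strong numbers were not always called active; many hits fall short of the cut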
# Rce1 inh = yeast Rce1p protease inhibitors, primary screen, biochemical, fluorescence, cell-free homogeneous. CAAX prenyl protease 2 (Saccharomyces cerevisiae (strain ATCC 204508 / S288c)), Q03530. yeast membranes, quenched prenylated peptide cleavage fluorescence. calls only. hit rate 0.27% among 290,000. AID 2563, 2010;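 active = fall in fluorescence gain of 50% or more versus controls, with final raw signal at or below 3038400; inconclusive = same 50% fall but final raw signal above 3038400; inactive = fall in fluorescence gain under 50%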;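 also: plate controls were neutral control wells for no effect and wells lacking membranes for full effect; tested at 10 µM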
# Target sequence (Q03530 whole entry, looked up): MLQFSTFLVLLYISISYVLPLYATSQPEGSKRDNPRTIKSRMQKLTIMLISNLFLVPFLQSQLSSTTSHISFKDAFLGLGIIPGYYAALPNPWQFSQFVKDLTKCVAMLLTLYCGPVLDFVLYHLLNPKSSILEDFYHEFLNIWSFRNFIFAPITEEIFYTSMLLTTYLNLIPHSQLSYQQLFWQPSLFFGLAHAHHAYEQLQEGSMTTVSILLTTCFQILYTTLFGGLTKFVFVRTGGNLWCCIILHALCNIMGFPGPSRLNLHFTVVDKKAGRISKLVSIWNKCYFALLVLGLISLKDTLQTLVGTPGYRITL
# PABP polyA inh = PABP poly(A) RNA binding inhibitors, primary screen, biochemical, fluorescence polarization, uHTS; AID 2014, 2009; Polyadenylate-binding protein 1 (Homo sapiens), P11940; inhibition, % at 35 µM; hit rate 1% among 290,000;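 active = 50% or more with normal probe brightness, or confirmed in later tests; inconclusive = above 50% with abnormal brightness, or retests that disagree; inactive = below 50% or failed in later tests; about a fifth of its hits are not listed in these tables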;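 also: calls also rest on retests at 20 µM and on dose response follow-up; controls were probe without protein and protein plus probe with vehicle; some compounds called inactive have numbers as strong as hits; many hits fall short of the cut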
# Target sequence (P11940 whole entry, looked up): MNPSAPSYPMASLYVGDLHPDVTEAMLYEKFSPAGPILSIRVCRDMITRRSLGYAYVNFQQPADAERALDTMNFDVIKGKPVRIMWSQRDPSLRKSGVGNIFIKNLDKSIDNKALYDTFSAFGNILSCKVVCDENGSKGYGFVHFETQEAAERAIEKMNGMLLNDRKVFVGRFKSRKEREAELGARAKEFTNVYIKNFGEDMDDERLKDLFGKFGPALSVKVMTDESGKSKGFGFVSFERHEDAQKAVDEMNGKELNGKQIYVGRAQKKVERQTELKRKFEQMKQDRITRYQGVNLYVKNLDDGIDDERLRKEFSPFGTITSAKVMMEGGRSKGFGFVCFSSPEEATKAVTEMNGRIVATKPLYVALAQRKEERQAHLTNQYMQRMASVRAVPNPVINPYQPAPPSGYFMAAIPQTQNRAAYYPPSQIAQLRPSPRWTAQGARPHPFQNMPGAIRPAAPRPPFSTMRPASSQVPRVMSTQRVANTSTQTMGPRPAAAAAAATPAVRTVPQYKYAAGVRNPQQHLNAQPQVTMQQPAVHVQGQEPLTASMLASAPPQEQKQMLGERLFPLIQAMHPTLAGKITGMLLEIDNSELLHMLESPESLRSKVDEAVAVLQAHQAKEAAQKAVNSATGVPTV
# MT1-MMP act inh = blockers of MT1-MMP proenzyme processing, primary screen, HT1080 RFP-PRO-GFP cells, GFP/RFP fluorescence. GFP/RFP ratio fluorescence, overnight; percent of plate control window, DMSO zero. GFP/RFP ratio change, % at 20 µM. hit rate 0.061% among 360,000;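 active = GFP/RFP ratio change of at least 30% with cell ATP level not reduced by more than half and red fluorescence within 50% of control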; also: strong numbers were not always called active
#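 Assay system: HT1080 RFP-PRO-GFP cells | Dosing: 20 µM single dose, 1% DMSO | Incubation: Cells overnight before dosing, compound overnight, 37 °C, 5% CO2 | Evaluation: GFP/RFP fluorescence ratio | Control set: DMSO-only wells and HT1080 RFP-L50D-GFP cell wells as references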
# CSC inhib = cancer stem cell viability inhibitors, primary screen, luminescence; cancer stem cell-like cells viability; inhibition, % at 7.5 µM; hit rate 1.1% among 300,000;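 active = mean at 75% or more and at least half the replicates too; inconclusive = mean and replicates disagree; tested in HMLE shEcad cells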;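 also: 0% = median of negative and 100% = median of positive control wells; the first replicate is given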
# UUG fidelity = modulators of yeast start codon fidelity, primary screen, whole organism, S. cerevisiae, single point, plate reader; S. cerevisiae UUG-firefly luciferase reporter, luminescence/redox ratio; activity score, % at 18.7 µM; hit rate 0.13% among 350,000; AID 602363, 2012;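 active = replicate mean at a twofold rise or more, about +100% in these data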;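 also: firefly luciferase made from a UUG start codon reports start codon fidelity; reporter light over untreated wells divided by growth signal over untreated wells; some hits fall short of that in this replicate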
# MT1-MMP act inh RFP = also measured in MT1-MMP act inh; calls as there; RFP signal change, %; measured here: RFP expression control read;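 0 = vehicle wells; hits needed this value within 50% of zero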
# * marks the source's active call; other numbers are inactive results; i = inactive; ? = inconclusive; · = no result given; & = joins results of further samples; [ ] = remark or other dose.
SMILES,HIV Env fusion,eIF4H FP inh,Rce1 inh,PABP polyA inh,MT1-MMP act inh,MT1-MMP act inh RFP,CSC inhib,UUG fidelity
Cc1cccc(N2CCN(S(=O)(=O)c3c(C)[nH]c(C)c3C(=O)N3CCCC3)CC2)c1C,34,11,i,12,2,-3,13,2
Cc1ccc(NC2=NC(c3ccc(O)cc3)n3c(nc(C)cc3=O)N2)cc1 (centres undefined),-9,11,i,1,2,6,-15,-20
c1ccc2c(-c3ccc4nncn4c3)cncc2c1,33,·,·,·,-12,-6,·,-13
CC(C)OCCCn1c(=NC(=O)c2ccncc2)c(C#N)cc2c(=O)n3ccccc3nc21,-21,?,?,?,6,3,-13,-13
S=C(NCCCn1ccnc1)Nc1ccc(Cl)cc1Cl,5,-3,i,-8,5,6,·,·
C[C@@H](NC(=O)C1(c2ccccc2)CCN(C(=O)OC(C)(C)C)CC1)C(=O)N[C@@H](Cc1ccccc1)C(=O)O,·,-4,i,-7,-3,1,-9,0
O=C(c1ccccc1)C(Nc1cccc([N+](=O)[O-])c1)c1ccccc1 (centres undefined),15,·,·,·,2,-8,·,-6
NC(=O)c1ccc(NC(=O)COC(=O)c2ccc3c(c2)OCCO3)cc1,3,11,i,7,6,6,·,·
C[N+](C)(C)CCCN(Cc1ccc2c(c1)OCO2)C(=O)NC1CCCCC1,8,4,i,31,-6,-3,1,·
COc1ccc(-n2cnc(=S)[nH]c2=S)cc1,-4,·,·,·,10,-2,·,-29
CCCn1cc(CN2CCC(N3CCC(C(=O)N4CCOCC4)CC3)CC2)c(C)n1,-12,15,i,-4,-3,4,·,-9
Cc1nn(S(=O)(=O)c2cccs2)c(C)c1Sc1ccc([N+](=O)[O-])cc1,97*,12,i,11,3,-9,3,2
CC(=O)Nc1sc2c(c1-c1nc3ccccc3s1)CCN(C(C)C)C2,·,?,·,?,-120,-13,56,-10
CCCCn1c(N2CCCC2)nc2c1c(=O)[nH]c(=O)n2C,6,4,i,-1,4,-1,-8,-11
Cc1ccc(-n2nc(C(=O)N/N=C/c3cccc(C(F)(F)F)c3)c3ccccc3c2=O)cc1C,·,-2,i,0,·,·,-10,·
COc1ccc(CCNC(=O)CC(C)(C)CC2=NS(=O)(=O)c3ccccc3N2)cc1OC,9,·,i,·,1,1,-12,1
CC(c1ccccc1)n1c(-c2ccccc2F)n[nH]c1=S (centres undefined),0,4,i,-9,0,2,6,-27
O=c1c2ccccc2ncn1CCCSc1ccc(Cl)cc1,·,-3,i,-7,2,-2,24,1
C[C@H](CO)N1C[C@H](C)[C@@H](CN(C)CC2CCCCC2)Oc2c(NC(=O)C3CC3)cccc2C1=O,36[16.7 µM],·,·,·,1,-1,-27,-7&3
CC1(C(=O)NS(=O)(=O)c2ccccc2)CCN1C(=O)C1(c2ccccc2)CCCC1 (centres undefined),-27,·,·,·,-1,6,·,-18

# Given with two lines to a compound: 14 of the compounds above.
# Below each compound – HIV Env fusion	eIF4H FP inh	Rce1 inh	PABP polyA inh	MT1-MMP act inh	MT1-MMP act inh RFP	CSC inhib	UUG fidelity
> S=C(NCCCn1ccnc1)Nc1ccc(Cl)cc1Cl
  5	-3	i	-8	5	6	·	·
> C[C@@H](NC(=O)C1(c2ccccc2)CCN(C(=O)OC(C)(C)C)CC1)C(=O)N[C@@H](Cc1ccccc1)C(=O)O
  ·	-4	i	-7	-3	1	-9	0
> O=C(c1ccccc1)C(Nc1cccc([N+](=O)[O-])c1)c1ccccc1 (centres undefined)
  15	·	·	·	2	-8	·	-6
> NC(=O)c1ccc(NC(=O)COC(=O)c2ccc3c(c2)OCCO3)cc1
  3	11	i	7	6	6	·	·
> C[N+](C)(C)CCCN(Cc1ccc2c(c1)OCO2)C(=O)NC1CCCCC1
  8	4	i	31	-6	-3	1	·
> COc1ccc(-n2cnc(=S)[nH]c2=S)cc1
  -4	·	·	·	10	-2	·	-29
> CCCn1cc(CN2CCC(N3CCC(C(=O)N4CCOCC4)CC3)CC2)c(C)n1
  -12	15	i	-4	-3	4	·	-9
> Cc1nn(S(=O)(=O)c2cccs2)c(C)c1Sc1ccc([N+](=O)[O-])cc1
  97*	12	i	11	3	-9	3	2
> CC(=O)Nc1sc2c(c1-c1nc3ccccc3s1)CCN(C(C)C)C2
  ·	?	·	?	-120	-13	56	-10
> CCCCn1c(N2CCCC2)nc2c1c(=O)[nH]c(=O)n2C
  6	4	i	-1	4	-1	-8	-11
> Cc1ccc(-n2nc(C(=O)N/N=C/c3cccc(C(F)(F)F)c3)c3ccccc3c2=O)cc1C
  ·	-2	i	0	·	·	-10	·
> COc1ccc(CCNC(=O)CC(C)(C)CC2=NS(=O)(=O)c3ccccc3N2)cc1OC
  9	·	i	·	1	1	-12	1
> CC(c1ccccc1)n1c(-c2ccccc2F)n[nH]c1=S (centres undefined)
  0	4	i	-9	0	2	6	-27
> O=c1c2ccccc2ncn1CCCSc1ccc(Cl)cc1
  ·	-3	i	-7	2	-2	24	1

# (further entries)
SMILES,HIV Env fusion,eIF4H FP inh,Rce1 inh,PABP polyA inh,MT1-MMP act inh,MT1-MMP act inh RFP,CSC inhib,UUG fidelity
O=C(Cc1ccccc1)Nn1cnc2ccccc21,·,-4,i,37,2,-4,-22,1
CN(CCN1CCOCC1)C(=O)C1CCC(=O)N(Cc2ccc(Cl)cc2)C1 (centres undefined),-6,·,·,·,-1,4,·,-25
COc1ccc(C(=O)Nn2cnnc2)cc1OC,-12,89*,i,72*,6,-2,-12,·
CC(C)NS(=O)(=O)c1ccc(OCC(=O)N2CCCC2)cc1,-61,-9,·,-2,-2,3,-1,-4
CCOc1ccc(/C=C2/Sc3ccc(C(=O)NCC4CCCO4)cc3N(C)C2=O)cc1OC (centres undefined),7,·,i,·,-1,-3,1,-17
Cc1cc(C)nc(-n2nc(C)cc2NC(=O)CNC2CCCCC2)n1,10,1,i,8,-1,-2,-23,-20
CCc1nnc(NC(=O)CSc2nc3c([nH]c4ccccc43)c(=O)n2CCOC)s1,1,-7,i,-2,-6,1,-1,-18
COc1cc(C(=O)NNC(=O)Cc2ccc(S(=O)(=O)N3CCOCC3)s2)cc(OC)c1OC,·,-5,i,-6,-4,2,-1,-7
O=C(CN1CCC(O)(c2ccc3c(c2)OCO3)CC1)NC1CCCCC1,22,2,i,-10,0,0,10,-12
COc1ccccc1CNc1nc(Oc2cccc(F)c2)c2sccc2n1,7,·,·,·,-9,-8,·,-7
O=C(Cn1nnc2ccccc21)C1CC1,·,12,i,2,3,6,-14,·
CC(=O)Nc1cc2c(cc1[N+](=O)[O-])OCCO2,-3,12,i,-2,-2,-1,-5,-4
COc1cc(NC(=O)c2cccnc2SC)cc(OC)c1OC,-18,-8,i,3,6,4,-4,·
CC(C)C[C@@H](CNCC(=O)[C@H](CC(C)C)NC(=O)c1[nH]cnc1C(=O)N[C@@H](C)CN)NC(=O)c1nc[nH]c1C(=O)N[C@@H](Cc1ccccc1)C(=O)O,12,·,·,·,1,5,·,24
COc1ccc(/C=C(\C#N)C(=O)OCC(=O)NC(=O)NCCC(C)C)cc1,18,-4,i,18,0,2,-13,·
O=C(OCc1nc2scc(-c3ccccc3)c2c(=O)[nH]1)c1cccc([N+](=O)[O-])c1,-12,-16,i,-4,3,7,-4,-16
COc1cc(C2C(C(C)=O)=C(O)C(=O)N2CCc2ccc(OC)c(OC)c2)ccc1O (centres undefined),·,0,i,27,4,7,-6,·
O=C(CC(Cc1ccccc1)c1ccco1)NC1CCCCC1 (centres undefined),-67,8,i,-11,·,·,-13,·
CC(C)C[C@@H](CNCC(=O)[C@H](C)NC(=O)c1[nH]cnc1C(=O)N[C@@H](C)CN)NC(=O)c1nc[nH]c1C(=O)N[C@@H](Cc1ccccc1)C(=O)O,25,·,·,·,2,3,·,3
COc1ccc(C2/C=C\CN(S(=O)(=O)c3cccc4cccnc34)CC(=O)N2Cc2ccc(F)cc2)cc1 (centres undefined),-15,-8,i,2,-7,0,5,-22
CC(O)[C@H]1CNCCN1CCc1cccc2ccccc12 (some centres undefined),-11,·,i,·,-3,-1,-3,-10
COC(=O)COc1cccc2c(=O)n(CC(=O)Nc3ccc4c(c3)OCCO4)ccc12,-23,7,i,-6,8,1,-1,5
Cc1c(N=Cc2c(O)n(C3CCCCC3)c(=O)[nH]c2=O)c(=O)n(-c2ccccc2)n1C,·,-2,i,3,-2,2,-7,-7
Cc1ccnc(NC(=O)Cc2ccc(F)cc2)n1,-16,-7,i,8,2,3,-4,·
CCc1ccc(C2C(C#N)=C(N)OC3=C2C(=O)CCC3)s1 (centres undefined),14,6,i,-4,-9,5,8,-1
CCOc1ccc(NC(=O)CCS(=O)(=O)c2cccc3nsnc23)cc1,10,1,i,5,1,1,14,15
O=C(Nc1ccc(O)cc1)c1ccc(NC(=O)c2cccs2)cc1,-16,3,i,7,4,3,85*,-4
CCOc1ccc(-c2nnc3ccc(SCC(=O)Nc4nc5ccccc5s4)nn23)cc1,-25,-1,i,2,0,0,-23,·
O=C(c1ccc(Cl)c([N+](=O)[O-])c1)N1CCN(C(=O)c2ccco2)CC1,0,2,i,1,-5,-3,4,·
FC(F)(F)c1cnc(COc2ccc(Cl)cc2Cl)c(Cl)c1,2,1,i,-1,-1,-4,11,·
O=C(O)COc1ccc(Br)cc1/C=N/O,·,7,i,14,3,4,-1,·
CCC1CCCCN1CCCNC(=O)c1cn(CC)c2ccc(S(=O)(=O)N3CCc4ccccc4C3)cc2c1=O (centres undefined),3,-3,i,2,-2,1,7,5
O=C(COC(=O)Cc1n[nH]c(=O)c2ccccc12)Nc1ccc(Cl)cn1,-14,·,·,·,-9,0,6,-7
O=C(NC1(C(F)(F)F)NC(=O)N(C2CCCCC2)C1=O)c1cccs1 (centres undefined),·,-13,i,-4,-2,2,10,21
O=C(Cc1cccs1)Nc1ccc(C(=O)O)cc1,·,1,i,9,4,-1,-4,-9
CCN(CC)S(=O)(=O)c1ccc(N2CCCC2)c(NC(=O)CN2C(=O)NC3(CCCC3)C2=O)c1,2,·,i,·,0,1,-7,6
COc1cc(CNC(=O)c2cc(-c3cc(F)ccc3OC(C)C)n[nH]2)cc(OC)c1,-6,·,·,·,0,-1,·,-13
C#CC1(O)CC(C)NCC1(C)CCC#N (centres undefined),·,1,i,-4,-2,3,-7,-7
COc1ccc(N2CCCCn3c2nc2c3c(=O)[nH]c(=O)n2C)cc1,10,-12,i,-14,-2,3,1,8
Cc1ccccc1Oc1ccc(NC(=O)C2CC=CCC2C(=O)O)cc1 (centres undefined),5,-4,i,5,-8,-2,-8,-11
CCc1nc2ccccc2n1CCC(=O)O,·,12,i,2,-3,-2,-15,-18
Cc1c(N2C(=O)CSC2c2ccccc2)c(=O)n(-c2ccccc2)n1C (centres undefined),10[16.7 µM],-3,i,-3,-1,3,0,-4
